Compound activity as filed in PubChem BioAssay.
Vif TR-FRET = inhibitors of Vif binding to APOBEC3G peptide, primary screen, biochemical, TR-FRET, GST-Vif 1-94, biotin-A3G peptide, dose response retest (AID 1117319); 260,000 tested, 0.57% active; TR-FRET GST-Vif / biotin-A3G peptide binding; higher % means a stronger effect; test concentration not given here; strong numbers were not always called active; one-dose inhibition, %; IC50 in µM for titrated hits;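 active = above the screen mean plus three standard deviations and confirmed in dose response; inconclusive = results disagree or hit not tested in dose response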;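 note: Vif residues 1-94 fused to GST binding biotinylated APOBEC3G peptide 110-148; 0% = full assay without inhibitor and 100% = GST in place of GST-Vif; retest series ran down from 100 µM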
FGF22 binding = shifts melting point of recombinant human FGF22 | recombinant FGF22 thermal shift, SYPRO orange fluorescence; percent of sucrose octasulfate shift, DMSO zero | Q9HCT0 | calls only at 9.99 µM | 340,000 tested, 1.5% active | AID 651658;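 active = melting point raised past a set limit in the mean and every replicate; inconclusive = no clear call; three in four hits are not shown here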
Target sequence (Q9HCT0 whole entry, looked up): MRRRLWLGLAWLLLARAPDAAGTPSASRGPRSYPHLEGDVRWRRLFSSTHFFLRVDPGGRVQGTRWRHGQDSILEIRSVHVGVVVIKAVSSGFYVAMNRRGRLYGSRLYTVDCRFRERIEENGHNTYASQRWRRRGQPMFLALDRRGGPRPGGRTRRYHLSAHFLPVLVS
E coli growth = blocks Escherichia coli growth. OD600, 23 h; stronger effect = lower value. OD600 absorbance (test concentration not listed). 330,000 tested, 0.21% active. AID 1053175;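 active = OD600 absorbance below the run mean of sample wells minus 3.6 SD, in any replicate, cut at about 0.56 in these data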;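 note: stock transfer was 300 nL into about 60 µL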
MLL AF4-AF9 inh = blocks AF4 peptide binding to human AF9. P42568. 350,000 tested, 0.47% active. AlphaScreen, biotin-AF4 peptide binding to FLAG-AF9. inhibition, % at 10 µM;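 active = every replicate reaching a set inhibition limit, whatever the replicate mean, cut at about 25% in these data; inconclusive = mean inhibition reaches that limit but some replicates miss it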;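 note: 0% = plate neutral control median and 100% = total signal loss; the record names both 10 and 1 µM as test concentration; the first replicate is given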
HNF4A DNA FP = change in binding of human HNF4 alpha to DNA. 360,000 tested, 0.3% active. P41235. activity change, % at 10 µM. HNF4a-FITC DNA binding, fluorescence polarization, 1 h; in the data active = activity change above about 30%, passing the limit was not always enough;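 note: controls were the assay level and a saturating level of protein; the project sought stronger binding though the title names inhibitors; some compounds called inactive have numbers as strong as hits; positive values seem to mean higher polarization but the record does not say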
Target sequence (P41235 whole entry, looked up): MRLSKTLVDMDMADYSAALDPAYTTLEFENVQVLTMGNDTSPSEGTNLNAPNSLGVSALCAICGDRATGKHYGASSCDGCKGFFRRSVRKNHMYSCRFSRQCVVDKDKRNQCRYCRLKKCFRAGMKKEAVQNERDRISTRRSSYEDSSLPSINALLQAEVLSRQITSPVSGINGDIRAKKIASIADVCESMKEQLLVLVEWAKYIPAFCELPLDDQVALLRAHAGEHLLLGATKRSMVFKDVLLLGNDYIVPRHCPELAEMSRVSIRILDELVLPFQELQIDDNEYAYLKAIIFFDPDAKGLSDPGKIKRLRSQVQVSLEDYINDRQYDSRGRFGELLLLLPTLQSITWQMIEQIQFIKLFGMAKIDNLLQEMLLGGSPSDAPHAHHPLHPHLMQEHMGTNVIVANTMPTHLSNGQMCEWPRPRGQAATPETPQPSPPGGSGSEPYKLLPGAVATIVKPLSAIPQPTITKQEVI
UCH37 inh = human UCH37 deubiquitinating enzyme inhibition; Q9Y5K5; purified proteasome/UCH37, Ub-AMC cleavage fluorescence; inhibition, % (test concentration not listed); 330,000 tested, 0.33% active;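 active = mean of two replicates above 20%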;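 note: 0% = compound-free wells with enzyme and 100% = wells lacking proteasome; stock transfer was 100 nL into about 20 µL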
Target sequence (Q9Y5K5 whole entry, looked up): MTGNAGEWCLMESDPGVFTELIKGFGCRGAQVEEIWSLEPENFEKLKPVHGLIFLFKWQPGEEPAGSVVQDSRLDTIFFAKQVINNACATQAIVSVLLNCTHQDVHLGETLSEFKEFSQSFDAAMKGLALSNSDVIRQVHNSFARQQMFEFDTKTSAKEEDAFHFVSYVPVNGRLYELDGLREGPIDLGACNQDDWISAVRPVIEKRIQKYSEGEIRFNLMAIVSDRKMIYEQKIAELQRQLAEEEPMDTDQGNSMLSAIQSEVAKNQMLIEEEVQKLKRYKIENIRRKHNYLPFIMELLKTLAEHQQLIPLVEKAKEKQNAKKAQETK
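Material: human UCH37 enzyme supplied as purified proteasome complex / Amount: 0.15 nM proteasome as dispensed / Buffer or medium: pH 7.4 Tris-HCl (50 mM) with ovalbumin, ATP-MgCl2, DTT / Times: preincubation 30 min, reaction 25 min, room temperature / Technique: AMC fluorescence from Ub-AMC cleavage, excitation 355 nm, emission 460 nm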
RanGTP-Imp inh = inhibitors of RanGTP-importin-beta interaction, primary screen, biochemical, FRET, CFP-Ran, YFP-importin-beta, homogeneous; 300,000 tested, 1.1% active; inhibition, % (concentration not given with the values); AID 2216; cell-free CFP-Ran/YFP-importin-beta FRET ratio;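 active = most replicates above 15%; inconclusive = exactly half above 15%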;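 note: 0% = DMSO wells and 100% = Ran loaded with GDP instead of GTP; wells of about 40 µL received 100 nL stock; the first replicate is given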
Numbers without * were called inactive; & = joins results of further samples. Only part of the results is shown; count on the stated rates, not on these rows.

What do the screens show for `NC(=O)C1CCCN(S(=O)(=O)c2ccc3ccccc3c2)C1` (stereo not given)?
Vif TR-FRET: -2%; FGF22 binding: inactive; E coli growth: 0.7; MLL AF4-AF9 inh: -2.6; HNF4A DNA FP: 4.5; UCH37 inh: 2.9; RanGTP-Imp inh: 5.1

How did COc1ccc(OC)c(S(=O)(=O)Nc2ccc(OCC(=O)O)cc2)c1 do in these assays?
Vif TR-FRET: 0%; FGF22 binding: inactive; E coli growth: 0.72; MLL AF4-AF9 inh: 0.5; HNF4A DNA FP: -1.4; UCH37 inh: -1.2; RanGTP-Imp inh: 0.8

Results for CCOC1(/N=C(\C)NS(=O)(=O)c2ccc(Cl)cc2)C(C)=CC(=O)C=C1C ?
Vif TR-FRET: 1%; FGF22 binding: inactive; MLL AF4-AF9 inh: -1.1; HNF4A DNA FP: -4.7; RanGTP-Imp inh: 1.8

Results for COc1ccc(S(=O)(=O)N2CCN(C)CC2)cc1 ?
FGF22 binding: inactive; E coli growth: 0.68; MLL AF4-AF9 inh: -4.6; HNF4A DNA FP: 1.7; UCH37 inh: 2.8; RanGTP-Imp inh: 0.3

How did COc1ccc(NC(=O)COC(=O)c2ccc(S(=O)(=O)N(C)c3ccccc3OC)cc2)cc1 do in these assays?
FGF22 binding: inactive; E coli growth: 0.75; MLL AF4-AF9 inh: 1.3; HNF4A DNA FP: -3.6; UCH37 inh: 5.9

How did Cc1cccc(NC(=O)CN2C(=O)NC3(CCCC3)C2=O)n1 do in these assays?
Vif TR-FRET: 2%; FGF22 binding: inactive; E coli growth: 0.62; MLL AF4-AF9 inh: -6.1; HNF4A DNA FP: 3.0; UCH37 inh: -3.3; RanGTP-Imp inh: 0.9

How did Cc1ccc(C)c(OCCC(=O)OCC(=O)NCCc2ccc(S(N)(=O)=O)cc2)c1 do in these assays?
Vif TR-FRET: -7%; FGF22 binding: inactive; E coli growth: 0.69; MLL AF4-AF9 inh: 0.2; HNF4A DNA FP: 2.4; UCH37 inh: -0.6; RanGTP-Imp inh: -1.2

Results for CCCc1nnc(NC(=O)CCC(=O)N2CCN(c3ccccn3)CC2)s1 ?
Vif TR-FRET: 2%; E coli growth: 0.65; HNF4A DNA FP: 4.2; UCH37 inh: 2.9; RanGTP-Imp inh: 2.2

What do the screens show for `CCCN1CCN(C(=O)c2ccc(F)c(S(=O)(=O)N3CCOCC3)c2)CC1`?
Vif TR-FRET: -10%; FGF22 binding: inactive; E coli growth: 0.69; MLL AF4-AF9 inh: -2.6; HNF4A DNA FP: 3.0; UCH37 inh: -0.3

What do the screens show for `Cc1cc(N2CCN(Cc3cn(C)nc3-c3ccccc3F)CC2)cc(C)n1`?
Vif TR-FRET: inconclusive; E coli growth: 0.66; MLL AF4-AF9 inh: 0.3; HNF4A DNA FP: -2.5; UCH37 inh: 0.6; RanGTP-Imp inh: -0.1

What do the screens show for `O=C(N/N=C/c1cccs1)c1n[nH]c2c1CCCC2`?
FGF22 binding: inactive; MLL AF4-AF9 inh: 0.5; HNF4A DNA FP: 2.0; RanGTP-Imp inh: 2.6

How did COc1ccc(Cn2c(C)nc3c(c(=O)c4ccccc4n3C)c2=O)cc1 do in these assays?
Vif TR-FRET: 7%; FGF22 binding: inactive; E coli growth: 0.66; MLL AF4-AF9 inh: -5.3; HNF4A DNA FP: 7.8; UCH37 inh: 5.5; RanGTP-Imp inh: 5.1

Results for Cc1ccc(NC(=O)CCC(=O)N2CCN(S(=O)(=O)c3ccc(C)cc3)CC2)cc1 ?
Vif TR-FRET: -10%; FGF22 binding: inactive; E coli growth: 0.67; MLL AF4-AF9 inh: -0.1; HNF4A DNA FP: -2.6; UCH37 inh: -1.0

Results for NC(c1csc(Nc2cnccn2)n1)c1ccccc1Cl (stereo not given) ?
FGF22 binding: inactive; MLL AF4-AF9 inh: 1.8; HNF4A DNA FP: 4.8

How did CCc1ccc(C#CC2=CC(=O)CC(C)(C)C2)cc1 do in these assays?
Vif TR-FRET: 7%; FGF22 binding: inactive; MLL AF4-AF9 inh: 8.3; HNF4A DNA FP: 0.7

Results for C[C@@H]1C=C[C@](Cc2ccccc2)(C(=O)O)N1C(=O)c1ccccc1 ?
FGF22 binding: inactive; MLL AF4-AF9 inh: -2.3; HNF4A DNA FP: 3.3; UCH37 inh: 0.3; RanGTP-Imp inh: 1.7

Results for S=C1NCCOCCOCCOCCOCCNC(=S)NCCOCCOCCOCCOCCN1 ?
Vif TR-FRET: -7%; E coli growth: 0.69; HNF4A DNA FP: 2.2; UCH37 inh: 3.6; RanGTP-Imp inh: 5.2

What do the screens show for `CCCCCc1c(-c2cccc(OC)c2)ncn1CCc1ccccc1OC`?
FGF22 binding: inactive; MLL AF4-AF9 inh: 3.5; HNF4A DNA FP: -0.2

What do the screens show for `Cc1ccc(C(=O)NCc2nnc3c(C(F)(F)F)cc(Cl)cn23)o1`?
FGF22 binding: inactive; E coli growth: 0.67; MLL AF4-AF9 inh: -4.2; HNF4A DNA FP: -0.1; UCH37 inh: 4.4; RanGTP-Imp inh: 1.1

What do the screens show for `Cc1ccc2nc(SCC(=O)N3CCN(c4ccccc4)CC3)[nH]c2c1`?
Vif TR-FRET: 0%; FGF22 binding: inactive; E coli growth: 0.64; MLL AF4-AF9 inh: -5.4; HNF4A DNA FP: 5.0; UCH37 inh: 4.9; RanGTP-Imp inh: 2.9

Of the compounds above, these contain an NH in an aromatic ring.
What do the screens show for `O=C(N/N=C/c1cccs1)c1n[nH]c2c1CCCC2`?
FGF22 binding: inactive; MLL AF4-AF9 inh: 0.5; HNF4A DNA FP: 2.0; RanGTP-Imp inh: 2.6

What do the screens show for `Cc1ccc2nc(SCC(=O)N3CCN(c4ccccc4)CC3)[nH]c2c1`?
Vif TR-FRET: 0%; FGF22 binding: inactive; E coli growth: 0.64; MLL AF4-AF9 inh: -5.4; HNF4A DNA FP: 5.0; UCH37 inh: 4.9; RanGTP-Imp inh: 2.9

Next entries follow:
How did Cc1ccc(S(=O)(=O)CCC(=O)OCC(=O)N2c3ccccc3NC(=O)C2(C)C)cc1 do in these assays?
Vif TR-FRET: -3%; FGF22 binding: inactive; E coli growth: 0.67; MLL AF4-AF9 inh: 0.2; HNF4A DNA FP: -2.6; UCH37 inh: -0.9; RanGTP-Imp inh: inconclusive

Results for COc1ccc(-n2c(SCC(=O)Nc3ccc(Br)cc3)nc(O)cc2=O)cc1 ?
Vif TR-FRET: 7%; FGF22 binding: inactive; E coli growth: 0.72; MLL AF4-AF9 inh: -1.8; HNF4A DNA FP: 1.9; UCH37 inh: 0.2; RanGTP-Imp inh: 4.1

What do the screens show for `CCC(=O)Nc1nnc(CCc2ccccc2)s1`?
Vif TR-FRET: -4%; E coli growth: 0.74; HNF4A DNA FP: -0.3; UCH37 inh: -4.3; RanGTP-Imp inh: 0.2

Results for Cc1cc(N2C(=O)C(=O)/C(=C(/O)c3ccc(F)cc3)C2c2ccc(Cl)cc2)no1 (stereo not given) ?
Vif TR-FRET: -4%; E coli growth: 0.7; HNF4A DNA FP: -0.6; UCH37 inh: 8.3; RanGTP-Imp inh: 0.0

Results for O=C(NCc1ccco1)C1(c2ccc(Cl)cc2)CCCC1 ?
Vif TR-FRET: -1%; E coli growth: 0.73; HNF4A DNA FP: -2.1; UCH37 inh: -0.4

How did CC(C)(C(=O)N1CCC1(C)C(=O)NS(=O)(=O)c1ccc(Br)cc1)c1ccccc1 (stereo not given) do in these assays?
FGF22 binding: inactive; MLL AF4-AF9 inh: -1.7; HNF4A DNA FP: -0.7

How did O=S(=O)(c1ccc(NC(=S)N/N=C/c2ccc(O)c(O)c2)cc1)N1CCOCC1 do in these assays?
Vif TR-FRET: 7.5µM*; FGF22 binding: inactive; MLL AF4-AF9 inh: 12; HNF4A DNA FP: 1.4; RanGTP-Imp inh: 5.5

Results for O=C(CN(c1ccccc1)S(=O)(=O)c1ccccc1)Nc1ccccc1C(=O)NCc1ccco1 ?
Vif TR-FRET: 13%; E coli growth: 0.73; HNF4A DNA FP: 2.7; UCH37 inh: 2.9; RanGTP-Imp inh: 0.8

How did Cc1c(C(N)=O)sc2ncn(CC(=O)OC(C)C)c(=O)c12 do in these assays?
Vif TR-FRET: inconclusive; E coli growth: 0.72; HNF4A DNA FP: 1.1; UCH37 inh: 0.3; RanGTP-Imp inh: 2.0

Results for COc1ccc(NC(=O)c2ccc(-c3ccc([N+](=O)[O-])cc3)o2)cc1OC ?
Vif TR-FRET: 4%; FGF22 binding: inactive; E coli growth: 0.7; MLL AF4-AF9 inh: 2.3; HNF4A DNA FP: -0.5; UCH37 inh: 7.3; RanGTP-Imp inh: 4.8

Results for Cc1ccc(NC(=O)COC(=O)C2=COCCO2)cc1 ?
Vif TR-FRET: 15%; E coli growth: 0.68; HNF4A DNA FP: -3.9; UCH37 inh: 0.8; RanGTP-Imp inh: 0.3

Results for CCN(CC)c1ccc(/C=N/N2CCN(Cc3ccccc3)CC2)cc1 ?
FGF22 binding: inactive; MLL AF4-AF9 inh: 37*; HNF4A DNA FP: -2.7; RanGTP-Imp inh: 0.6

Results for O=Cc1c(NC2CCCCC2)c2ccccc2[nH]c1=O ?
FGF22 binding: inactive; E coli growth: 0.64; MLL AF4-AF9 inh: -3.0; HNF4A DNA FP: -1.3; UCH37 inh: 4.9; RanGTP-Imp inh: 0.8

What do the screens show for `Nc1cc(C(=O)OCC(=O)N2CCC(Cc3ccccc3)CC2)ccc1Cl`?
FGF22 binding: inactive; E coli growth: 0.7; MLL AF4-AF9 inh: -0.2; HNF4A DNA FP: 7.6; UCH37 inh: -0.4

How did N#Cc1c2nc3ccccc3nc2n2cc(NC(=O)c3ccc(F)cc3)ccc12 do in these assays?
Vif TR-FRET: inconclusive; FGF22 binding: inactive; E coli growth: 0.76; MLL AF4-AF9 inh: 3.0; HNF4A DNA FP: -45; UCH37 inh: -4.7

What do the screens show for `Cc1cccc(N(CC(=O)N/N=C/c2cc([N+](=O)[O-])ccc2Cl)S(C)(=O)=O)c1C`?
Vif TR-FRET: 31%; HNF4A DNA FP: 0.6; RanGTP-Imp inh: 5.0

Results for CCc1ccc(CNC(=O)C2CCN(S(=O)(=O)N3CCC4(CC3)OCCO4)CC2)cc1 ?
Vif TR-FRET: -4%; FGF22 binding: inactive; E coli growth: 0.62; MLL AF4-AF9 inh: -6.5; HNF4A DNA FP: 10; UCH37 inh: -1.0; RanGTP-Imp inh: 1.0

Results for COC(=O)CSc1ncnc2c1sc1nc(N3CCOCC3)c3c(c12)CCCC3 ?
Vif TR-FRET: 4%; E coli growth: 0.77; HNF4A DNA FP: 1.4; UCH37 inh: -11; RanGTP-Imp inh: -0.4

How did CCCCCCN1C[C@H](n2cc(C3CC3)nn2)[C@@H](O)C[C@@H]1c1ccccc1 do in these assays?
FGF22 binding: inactive; MLL AF4-AF9 inh: -4.9; HNF4A DNA FP: -1.6

How did COc1ccc(C2C=C(Nc3ccccc3)C(=O)N2c2ccccc2)cc1OC (stereo not given) do in these assays?
Vif TR-FRET: 2%; FGF22 binding: inactive; E coli growth: 0.7; MLL AF4-AF9 inh: 1.1; HNF4A DNA FP: -6.0; UCH37 inh: -1.7; RanGTP-Imp inh: 0.9

What do the screens show for `Cn1nc([N+](=O)[O-])nc1Sc1cccc2cccnc12`?
FGF22 binding: inactive; E coli growth: 0.64; MLL AF4-AF9 inh: 2.6; HNF4A DNA FP: -5.3; UCH37 inh: 1.9; RanGTP-Imp inh: 7.2

Results for COc1ccc(C2=Nn3c(nnc3-c3ccccc3)SC2)cc1OC ?
Vif TR-FRET: -5%&1%; E coli growth: 0.76; HNF4A DNA FP: -2.6; UCH37 inh: 0.3; RanGTP-Imp inh: 3.3
